2A StopGo: lowers the luciferase signal of an FMDV 2A StopGo reporter | Potency, µM (doses to about 57.9 µM), for inactives: top-dose signal change, negative = less light | human cells with a luciferase reporter of 2A StopGo recoding; control for the full effect not named in the record | AID 1159524 | actives 1.2% (n = 410,000); active = well fitted falling curve with a large enough effect; inconclusive = small, poorly fitted or top-dose-only effect; inactive = no such curve, though single readings can be large or run the other way; tested in HEK293T cells; note: % is set by controls: 0 for no effect and ±100 for the full control effect; nearly all actives have a fitted effect of over 45% in size; luciferase light after 4 h
SARS PLP yeast: blocks SARS-CoV papain-like protease in a yeast assay. S. cerevisiae expressing SARS-CoV PLpro, growth rescue; control for the full effect not named in the record. Potency, µM (highest dose often 32.9 µM), inactives show top-dose activity, positive = growth rescue. actives 0.19% (n = 330,000); active means well fitted rising curve with a large enough effect; inconclusive means small, poorly fitted or top-dose-only effect; inactive means no such curve, though single readings can be large or run the other way; note: 0% is about no effect; nearly all actives have a fitted effect of over 55% in size; growth read by luminescence after 48 h
Lassa entry inh: inhibitors of Lassa virus binding or cell entry | Lassa virus pseudotype entry inhibition, cell reporter; control for the full effect not named in the record | Potency, µM (doses to about 37.9 µM), for inactives: at the top dose activity change, negative = inhibition, usual class: inhibitors | actives 1.2% (n = 300,000); active means well fitted inhibition curve with a large enough effect; inconclusive means small, poorly fitted or top-dose-only effect, or effect the other way; inactive means flat fitted curve, though single readings scatter; tested in HEK293 cells; note: % is set by controls: 0 for no effect and ±100 for the full control effect; nearly all actives have a fitted effect of over 50% in size; luciferase read-out
RE007 growth inh: less growth of the S. pombe RE007 Vpr strain | S. pombe RE007 Vpr strain, BacTiter-Glo ATP luminescence, 24 h; control for the full effect not named in the record | AID 651644 | Potency, µM (series often up to 92.2 µM), without a hit: at the highest dose activity change, negative = less growth | actives 0.21% (n = 360,000); active = well fitted falling curve with a large enough effect; inconclusive = small, poorly fitted or top-dose-only effect; inactive = no such curve, though single readings can be large or run the other way;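 note: % is set by controls: 0 for no effect and ±100 for the full control effect; nearly all actives have a fitted effect of over 50% in size; the assay follows cell death caused by Vpr and the record does not say whether a fall means rescue or toxicity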
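Fission yeast RE007 carrying one integrated HIV-1 vpr copy, seeded at OD 0.01 in PMG+AL medium with 23 nL pinned compound. Grown 24 h at 30 degrees; viability read by BacTiter-Glo luminescence after 5 min.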
NS1 inh: inhibitors of influenza NS1 protein function; actives 0.4% (n = 270,000); S. cerevisiae slowed by influenza A NS1, growth recovery by OD600; Potency, µM (top dose mostly 46.1 µM), without a hit: at the top dose activity, positive = more growth; active means well fitted rising curve with a large enough effect; inconclusive means small, poorly fitted or top-dose-only effect; inactive means no such curve, though single readings can be large or run the other way; note: nearly all actives have a fitted effect of over 50% in size
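S. cerevisiae expressing influenza A NS1, grown in glucose, washed, then diluted 1:100 into pH 6.0 -URA galactose medium with 23 nl compound. Growth recovery read as OD600; NS1-free strain serves as control.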
Cruzain noTriton: blocks cruzain activity in detergent-free assay; P25779; AID 1476; actives 2.3% (n = 200,000); purified cruzain, Z-FR-AMC fluorescence, no detergent; Potency, µM, for the others: max response, negative = inhibition, hits mostly inhibitors;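 note: plate controls were enzyme without inhibitor for no effect and buffer without enzyme for full effect; nearly all actives have a fitted effect of over 40% in size; top concentration of the series not given in the record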
Target sequence (P25779 123-467 limits assumed): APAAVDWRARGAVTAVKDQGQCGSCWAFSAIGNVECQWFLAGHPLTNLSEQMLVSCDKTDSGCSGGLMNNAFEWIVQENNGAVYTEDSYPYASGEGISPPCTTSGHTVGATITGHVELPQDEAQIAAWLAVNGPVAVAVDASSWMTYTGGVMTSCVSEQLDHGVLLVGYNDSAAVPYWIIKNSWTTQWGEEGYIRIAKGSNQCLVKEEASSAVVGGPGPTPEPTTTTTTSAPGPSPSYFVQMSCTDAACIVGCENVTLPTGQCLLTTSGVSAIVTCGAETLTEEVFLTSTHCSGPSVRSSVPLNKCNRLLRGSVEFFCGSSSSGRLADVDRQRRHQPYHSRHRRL
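Purified cruzain at 1.5 nM, pre-incubated 15 min with compound at room temperature in 100 mM sodium acetate pH 5.5, 5 mM DTT, 0.00005% Triton X-100. Reaction started with 2 uM Z-FR-AMC; AMC fluorescence increase over 60 s gives rate.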
Marburg entry inh: inhibitors of Marburg virus binding or cell entry; Marburg virus pseudotyped entry inhibition, cell reporter; control for the full effect not named in the record; about a third of the inactives were read at about 46 µM; Potency, µM (doses to about 37.8 µM), for inactives: at the top dose activity change, negative = inhibition, hits mostly inhibitors; actives 1.8% (n = 300,000); active = well fitted inhibition curve with a large enough effect; inconclusive = small, poorly fitted or top-dose-only effect, or effect the other way; inactive = flat fitted curve, though single readings scatter; tested in HEK293 cells; about a fifth of its hits are not listed in these tables; note: % is set by controls: 0 for no effect and ±100 for the full control effect; luciferase read-out
Cruzain Triton: inhibitors of Trypanosoma cruzi cruzain with detergent; P25779; purified cruzain, Z-FR-AMC fluorescence, 0.01% Triton; Potency, µM, inactives show max response, negative = inhibition, actives largely listed as inhibitors; actives 0.43% (n = 200,000); AID 1478;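 note: plate controls were neutral wells for no effect and buffer without enzyme for full effect; nearly all actives have a fitted effect of over 40% in size; top concentration of the series not given in the record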
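Enzyme 1.5 nM, Z-FR-AMC 2 uM, NaOAc 100 mM pH 5.5, DTT 5 mM, Triton X-100 0.01%; 15 min RT compound preincubation; kinetic ex360/em450, 60 s delta.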
Active calls of the source: *; ? = inconclusive; . = no result given; & = joins results of further samples; [ ] = dose if it differs, or a comment. Unless noted, calls come from the whole dose curve; as a rule, active = well fitted curve in the direction sought with a large enough effect; inconclusive = small, poorly fitted or top-dose-only effect, or another doubt; inactive = no such curve, though single readings can be large; an effect the other way counts as inactive or inconclusive. Potency is the fitted concentration of half-maximal effect. Not a hit list, and some 4.7% of all compounds hit somewhere here.

1: Cc1c(C(=O)OCC2CCCO2)[nH]c2c1C(=O)CC(c1ccc(N(C)C)cc1)C2 (stereo unspecified)
2: Cn1c(=O)c(=O)n(C)c2cc(S(=O)(=O)NCCOc3ccccc3Cl)ccc21
3: CCn1cc(CNC(=O)c2c(-c3c(Cl)cccc3Cl)noc2C)c(C)n1
4: COc1ccc(C(=O)CN2C(=O)NC(C)(c3ccccc3)C2=O)cc1OC (stereo unspecified)
5: CCOc1ccc(N(CC(=O)NCc2cccnc2)S(=O)(=O)c2ccc(F)cc2)cc1
6: CC1CCN(S(=O)(=O)c2ccc3c(c2)N(CC(=O)N2CCN(c4ccccc4)CC2)C(=O)CO3)CC1
7: Cc1sc2ncn(CC(=O)N3CCN(c4ccccc4F)CC3)c(=O)c2c1S(=O)(=O)N1CCN(c2ncccn2)CC1
8: O=C1CC(c2ccccc2)N1c1ccccc1 (stereo unspecified)
Compound	1	2	3	4	5	6	7	8
2A StopGo	20µM*	10%	-15%	-4%	-4%	-17%	-28%	0%
SARS PLP yeast	-4%	5%	18%	4%	2%	.	.	-1%
Lassa entry inh	.	5%[46.1 µM]	-7%	-4%	-1%	21%[46.1 µM]	-4%[46.1 µM]	-10%
RE007 growth inh	11%	6%	-19%	5%	-4%	.	.	23%
NS1 inh	-6%	.	1%	6%	8%	.	.	-7%
Cruzain noTriton	-8%	.	0%	2%	.	?	-5%	-1%
Marburg entry inh	1%	?	4%	-5%	28%	?	-24%[46.1 µM]	9%
Cruzain Triton	-6.3%	.	2.4%	-1.8%	.	-4.0%	-3.0%	-1.1%

9: C[C@H](C(=O)NCc1ccccc1)C(=O)c1ccccc1
10: CC1CCCN(C(=O)c2ccc(NC(=O)CC3SC(N4CCCC4)=NC3=O)cc2)C1 (stereo unspecified)
11: C=CCOC(=O)Nc1snnc1C
12: COc1ccc(OCC(=O)Nc2ccccc2C(=O)N2CCCC2)cc1
13: C=CC[C@H]1Cc2c(cccc2[N+](=O)[O-])[C@H](CC=C)N1
14: O=C(NCC1(c2ccccc2)CCCC1)C1(c2ccccc2)CCCC1
15: CCC(C)Cn1c(O)cc2nn(-c3nc4ccccc4s3)c(=O)c-2c1C (stereo unspecified)
16: Cn1[nH]c(=O)c2ccccc2c1=O
Compound	9	10	11	12	13	14	15	16
2A StopGo	-10%	24%	-24%	-26%	4%	?	?	.
SARS PLP yeast	1%	1%	5%	-19%	-5%	-70%	1%	1%
Lassa entry inh	.	-1%[46.1 µM]	1%	-4%	15%[46.1 µM]	-29%	-25%	-6%
RE007 growth inh	11%	?	1%	7%	-4%	26%	-10%	3%
NS1 inh	0%	.	-7%	-16%	.	-18%	6%	2%
Cruzain noTriton	.	.	5%	-11%	.	0%	.	4%
Marburg entry inh	.	2%	?	6%[46.1 µM]	-10%[46.1 µM]	?	-22%[46.1 µM]	7%
Cruzain Triton	.	.	4.4%	-3.3%	.	-3.0%	.	0.3%

17: CCN(CC)c1ccc(NC(=O)c2ccc(S(=O)(=O)N3CCOCC3)cc2)cc1
18: CCN1CCc2c(sc(NC(=O)C3COc4ccccc4O3)c2C(N)=O)C1 (stereo unspecified)
19: COc1ccc(N2CCN(C(=O)Cn3nnc(-c4cccs4)n3)CC2)cc1
20: Cc1nnc(SCC(=O)N(C)C2CCCCC2)s1
21: Cn1ccnc1SCC(=O)Nc1ccc2nc(SCC(=O)NC3CC3)sc2c1
22: CN1CCC(=NNC(=O)C(=O)NC2CCCC2)CC1
23: CC(C)CCNC(=O)CN1C(=O)c2cccnc2Sc2ccccc21
24: COc1ccc(/C(C)=N/N=C2/NC(=O)CC(C(=O)O)S2)cc1 (stereo unspecified)
Compound	17	18	19	20	21	22	23	24
2A StopGo	?	25%	-19%	17%	11%	-13%	-7%	-4%
SARS PLP yeast	1%	10%	3%	0%	-3%	7%	.	13%
Lassa entry inh	-17%	-3%	-16%	?	-11%	1%	6%[46.1 µM]	-1%
RE007 growth inh	14%	-19%	-4%	13%	11%	-3%	.	14%
NS1 inh	.	6%	-4%	5%	4%	3%	.	-4%
Cruzain noTriton	.	.	1%	.	-9%	2%	-7%	-4%
Marburg entry inh	16%	4%	13%	?	?	?	.	5%
Cruzain Triton	.	.	-1.9%	.	-8.8%	3.1%	-2.1%	-3.9%

25: CN(CCCNC(=O)CN1C(=O)CC(C)(C)S(=O)(=O)c2ccccc21)C1CCCCC1
26: O=c1[nH]c(CSc2nnc(Cc3ccccc3)o2)nc2ccccc12
27: COc1ccc(-c2nn(C)c3sc(C(=O)N4CCN(c5cc(Cl)ccc5C)CC4)cc23)cc1OC
28: O=C(OCC(=O)N1CCCCC1)c1ccccc1SCC(=O)N1CCCCC1
29: C=CCn1c(SC)nnc1-c1cccc([N+](=O)[O-])c1
30: COc1ccc(C2/C(=C(\O)c3cc(C)ccc3C)C(=O)C(=O)N2CCN(C)C)cc1OC (stereo unspecified)
31: O=C(NCc1ccc(N2CCCC2=O)cc1)c1cn(CCc2ccccc2)nn1
32: CC(=O)Nc1c(NC(C)C)c2ccccc2oc1=O
Compound	25	26	27	28	29	30	31	32
2A StopGo	-22%	-18%	1%	15%	-8%	-15%	-2%	-5%
SARS PLP yeast	26%	1%	.	0%	9%	3%	-4%	2%
Lassa entry inh	19%	8%	-27%[46.1 µM]	-8%	9%	?	2%	5%
RE007 growth inh	0%	-5%	.	3%	6%	-4%	-6%	4%
NS1 inh	-2%	.	.	.	15%	-1%	-3%	5%
Cruzain noTriton	19%	.	-6%	.	-11%	0%	0%	-11%
Marburg entry inh	-10%	-7%[46.1 µM]	?	11%	-10%	6%	1%[46.1 µM]	5%
Cruzain Triton	6.9%	.	-7.5%	.	-3.6%	-8.8%	5.9%	-2.5%

33: CCc1ccc(C(=O)COC(=O)CNC(=O)C2CCCCC2)cc1
34: O=c1ccc2ccc(Oc3ccc([N+](=O)[O-])cc3[N+](=O)[O-])cc2o1
35: Cc1cccc(N(CC(=O)NC2CCCC2)C(=O)c2cc3cc4cccc(C)c4nc3s2)c1C
36: CC(=O)C1C2c3ccccc3OC1(C)N=c1s/c(=C/c3cnn(C)c3)c(=O)n12 (stereo unspecified)
37: COC(=O)Nc1nnc(Cc2ccc(OC)cc2)s1
38: CCOC(=O)c1[nH]ncc1CN1CCCC(C(=O)c2ccc(OC)cc2C)C1 (stereo unspecified)
39: COc1cccc(CNc2ncn[nH]2)c1OCc1ccccc1F
40: COc1ccc(-c2ccc3c(N)c(C(=O)Nc4ccc(C)cc4C)sc3n2)cc1OC
Compound	33	34	35	36	37	38	39	40
2A StopGo	-21%	.	-6%	-19%	-2%	-11%	-7%	-24%
SARS PLP yeast	-6%	-6%	3%	0%	5%	1%	1%	.
Lassa entry inh	9%	-24%	-26%	1%	-19%	.	4%	-2%[46.1 µM]
RE007 growth inh	0%	.	-10%	2%	19%	-14%	-9%	.
NS1 inh	.	-8%	?	-5%	-9%	-5%	.	.
Cruzain noTriton	.	-10%	?	-6%	7%	.	.	9%
Marburg entry inh	2%&2%[46.1 µM]	-38%	?	-14%	16%[46.1 µM]	.	6%	?
Cruzain Triton	.	-5.7%	-1.4%	-3.8%	3.6%	.	.	-6.8%

Records 30 through 37 of the list above:
30: COc1ccc(C2/C(=C(\O)c3cc(C)ccc3C)C(=O)C(=O)N2CCN(C)C)cc1OC (stereo unspecified)
31: O=C(NCc1ccc(N2CCCC2=O)cc1)c1cn(CCc2ccccc2)nn1
32: CC(=O)Nc1c(NC(C)C)c2ccccc2oc1=O
33: CCc1ccc(C(=O)COC(=O)CNC(=O)C2CCCCC2)cc1
34: O=c1ccc2ccc(Oc3ccc([N+](=O)[O-])cc3[N+](=O)[O-])cc2o1
35: Cc1cccc(N(CC(=O)NC2CCCC2)C(=O)c2cc3cc4cccc(C)c4nc3s2)c1C
36: CC(=O)C1C2c3ccccc3OC1(C)N=c1s/c(=C/c3cnn(C)c3)c(=O)n12 (stereo unspecified)
37: COC(=O)Nc1nnc(Cc2ccc(OC)cc2)s1
Compound	30	31	32	33	34	35	36	37
2A StopGo	-15%	-2%	-5%	-21%	.	-6%	-19%	-2%
SARS PLP yeast	3%	-4%	2%	-6%	-6%	3%	0%	5%
Lassa entry inh	?	2%	5%	9%	-24%	-26%	1%	-19%
RE007 growth inh	-4%	-6%	4%	0%	.	-10%	2%	19%
NS1 inh	-1%	-3%	5%	.	-8%	?	-5%	-9%
Cruzain noTriton	0%	0%	-11%	.	-10%	?	-6%	7%
Marburg entry inh	6%	1%[46.1 µM]	5%	2%&2%[46.1 µM]	-38%	?	-14%	16%[46.1 µM]
Cruzain Triton	-8.8%	5.9%	-2.5%	.	-5.7%	-1.4%	-3.8%	3.6%

Following part.
41: O=C(CCCN1C(=O)c2cccc3cccc(c23)C1=O)N1CCN(c2ccccc2O)CC1
42: OCc1n[nH]c(CO)n1
43: O=C(Nc1cc2nn(-c3ccccc3)nc2cc1Cl)c1ccco1
44: CCN(CC)c1ccc(C(=O)OCc2c(C)noc2C)cc1
45: Cn1nnnc1SCC(=O)c1c(N)n(C)c(=O)n(C)c1=O
46: COc1ccc(NC2=NCCC2)cc1
47: CCOc1ccccc1-n1c(COc2ccc(C)cc2)nnc1SCC(N)=O
Compound	41	42	43	44	45	46	47
2A StopGo	-23%	-14%	39%[activator]	0%	-5%	0%	-11%
SARS PLP yeast	-7%	-1%	2%	-7%	-1%	2%	-1%
Lassa entry inh	7.9µM*	-1%	?	-4%	1%	11%	-18%
RE007 growth inh	1%	0%	-9%	0%	5%	-1%	6%
NS1 inh	-8%	-5%	4%	.	3%	?	-6%
Cruzain noTriton	4%	6%	-22%	.	5%	0%	3%
Marburg entry inh	?	1%	?	11%[14.2 µM]	17%	?	10%
Cruzain Triton	-5.0%	-1.7%	-5.0%	.	-0.3%	7.7%	-2.0%

Source: PubChem
